Assay outcomes: PubChem, National Center for Advancing Translational Sciences (NCATS)
nsP2pro primary: Primary qHTS for inhibitors of NSP2Pro chikungunya virus (CHIKV) | Polyprotein P1234 (Chikungunya virus (strain S27-African prototype)), Q8JUX6 | FRET peptide cleavage, nsP2pro, fluorescence 1 h | Potency, µM (series often up to 24.9 µM), for inactives: top-dose activity change, negative = inhibition, hits mostly inhibitors | 31,000 tested, 1.1% active; active means well fitted inhibition curve with a large enough effect; inconclusive means small, poorly fitted or top-dose-only effect; inactive means no such curve, though single readings can be large or run the other way; also: nearly all actives have a fitted effect of over 60% in size; a reference inhibitor and vehicle were the controls
* = called active by the depositor; i = inactive; ? = inconclusive; & = joins results of further samples; [ ] = another dose, or the depositor's remark. % is scaled to controls: 0 for no effect and ±100 for the full control effect; potency is read from the fitted curve at half-maximal effect. Not all compounds are listed; the hit share may differ from the screen's.

smiles	nsP2pro primary
CCNC(=O)[C@@H]1CCCN1C(=O)[C@H](CCCN=C(N)N)NC(=O)[C@H](CC(C)C)NC(=O)[C@@H](C)NC(=O)[C@H](Cc1ccc(O)cc1)NC(=O)[C@H](CO)NC(=O)[C@H](Cc1c[nH]c2ccccc12)NC(=O)[C@H](Cc1cnc[nH]1)NC(=O)[C@@H]1CCC(=O)N1	61%[activator][10 µM]
COc1ccc(-c2sc(NC(=O)C(C)(C)C)nc2C)cc1S(=O)(=O)Nc1ccc(O)cc1	20%
C=CCc1ccc(O[C@@H]2O[C@H](CO[C@@H]3O[C@H](CO)[C@@H](O)[C@H](O)[C@H]3O)[C@@H](O)[C@H](O)[C@H]2O)c(O)c1	-8%[10 µM]
C[C@@H]1CCC2C(C)(C)[C@H](O)CC[C@]2(C)[C@@]12Cc1c(O)cc3c(c1O2)CN([C@@H](CCC(=O)O)C(=O)O)C3=O (some centres not stated)	-13%[10 µM]
COc1cccc(S(=O)(=O)N2C[C@@H](C)[C@](O)(C3CCC3)C2)c1	5%
CCOC(=O)C1=C(CN2CCN(CC)CC2)NC(=O)NC1c1ccc(Cl)cc1 (configuration not stated)	-19%
COCCNC(=O)Cn1c(=O)n(CCCCCC(=O)NCc2ccc3c(c2)OCO3)c(=O)c2sccc21	-14%
CC[C@@H](CO)NC(=O)[C@@H]1C=C2c3cccc4c3c(cn4C)C[C@H]2N(C)C1	?
COc1ccc2cc(CNc3ccc(C)cc3)c(=O)n(CC(=O)Nc3cccc(C(F)(F)F)c3)c2c1	25%
Cc1ccc(CNc2ccc(-c3nc(-c4ccco4)no3)cc2[N+](=O)[O-])cc1	-30%
Cc1cccc(CNc2ccnc(-c3ccccc3C)n2)c1	-9%
CCCCN1C(=O)c2ccccc2C1=O	-7%
CC(C)(C)OC(=O)N1CCC(c2c(C(=O)NCCc3ccsc3)cnn2-c2ccc(F)cc2F)CC1	-11%
CC(C)CCON=O	0%
CCc1nnc(NC(=O)c2nc(SCc3ccc(F)cc3)ncc2Cl)s1	181%[activator]
CNC(=O)[C@@H]1C[C@H](Oc2ccccc2)CN1S(=O)(=O)c1ccc2c(c1)CCC2	0%
O=C(NCC1CCOC1)C1CCN(c2nc(-c3ccccc3)nc3c2CCC3)CC1 (configuration not stated)	5%
O=C(O)c1cc2c(s1)CCN(C(=O)c1ccc(F)cc1)C2	-26%
CC1CCCN(CCCNC(=O)c2ccc3c(c2)N(Cc2ccccc2F)C(=O)c2ccccc2S3(=O)=O)C1 (configuration not stated)	14%
CC(C)(C)c1ccc(OCC(=O)N2CCC(c3nc4ccccc4s3)CC2)cc1	-16%
Cc1sc2c(c1C)c(=O)n(Cc1ccccc1)c(=O)n2Cc1ccc(F)cc1	-13%
Cc1ccc(NC(=O)Cn2nnc(-c3nc(-c4ccncc4)no3)c2N)c(C)c1	-17%
COC(=O)c1cc2sccc2n1Cc1nc(-c2cccc(Br)c2)oc1C	-27%
COc1ccc2[nH]c(C(=O)N3C[C@@H](CO)[C@H](c4ccccn4)C3)cc2c1	-8%
Cn1cnc2c(NCc3ccccc3)nc(NCCO)nc21	-2%
CCOC(=O)c1cc(C)n(CC2CCC(C(=O)Nc3ccc(C(C)=O)cc3)CC2)c1C (configuration not stated)	-14%
CCCCC(=O)OC1=C(C(=O)c2ccccc2)N(CCC)S(=O)(=O)c2ccccc21	-7%
OC[C@H]1O[C@@H](n2cnc3c2NC=NC[C@H]3O)CC1O (some centres not stated)	-23%
O=C(Nc1cccnc1)c1cc(-c2ccc(Cl)cc2)on1	-10%
CCCCNC(=O)c1nnn2cc(-c3ccc(Cl)cc3)[nH]c(=O)c12	3%

Next section, overlapping the part above by 2 compounds.
smiles	nsP2pro primary
O=C(Nc1cccnc1)c1cc(-c2ccc(Cl)cc2)on1	-10%
CCCCNC(=O)c1nnn2cc(-c3ccc(Cl)cc3)[nH]c(=O)c12	3%
CC(C)[C@@](C)(O)[C@@H]1CN(c2nc(-c3[nH]nc4ncccc34)c(F)cc2Cl)CCN1	61%[activator]
CCOc1ccccc1NC(=O)c1nc2nc(C)cc(C(F)F)n2n1	-11%
O=C(O)c1cc(O[C@@H]2O[C@H](CO)[C@@H](O)[C@H](O)[C@H]2O)ccc1O	13%
COC(=O)c1ccccc1O[C@@H]1O[C@H](CO)[C@@H](O)[C@H](O)[C@H]1O[C@@H]1O[C@@H](C)[C@H](O)[C@@H](O)[C@H]1O	-3%[10 µM]
O=C1NC2(CCCN(Cc3cncs3)C2)COc2ccccc21 (configuration not stated)	i
Cc1csc(NC(=O)c2nc3c(o2)CCN(Cc2ccccc2F)CC3)n1	13µM*
NC(Cc1ccc(Cl)cc1)C(=O)O (configuration not stated)	?
Cc1cc(Cl)ccc1OCC(=O)N(Cc1ccc(N(C)C)cc1)C1CCS(=O)(=O)C1 (configuration not stated)	-17%
CCC(C)C(C)(COC(N)=O)COC(N)=O (configuration not stated)	-2%
CCC(=O)Nc1ccc(OCc2cc(C3Nc4ccccc4C(=O)N3Cc3ccccc3)ccc2OC)cc1 (configuration not stated)	?
CCN1CCCC1Cn1c(-c2ccccc2)nc2c(NCc3ccccc3)nc(C)nc21 (configuration not stated)	-5%
Cc1cccc(-c2noc(CN(C3CCCCC3)S(=O)(=O)c3ccc(F)cc3)n2)c1	-28%
COc1cc2c(cc1OC)C(COc1cccc(C(F)(F)F)c1)N(C(=O)c1ccc(S(=O)(=O)N3CCCC3)cc1)CC2 (configuration not stated)	-20%
CN1c2cccnc2CN(Cc2ccccc2Cl)CC[C@H]1CO	?
CCS(=O)(=O)N1CCCCCCNC(=O)[C@@H]2C[C@@H](C(=O)N3CCc4ccccc4C3)C[C@@H]21	i
O=C(Cc1ccc(Cl)cc1)Nc1cnccc1C(=O)O	10%
Cc1cc(C(F)(F)F)n2nc(-c3ccc(Br)cc3)cc2n1	-22%
COc1ccc(-c2nc3scc(CCNS(=O)(=O)c4cccs4)n3n2)cc1	-11%
CC(C)Cc1nnc(NC(=O)C[C@H]2NC(=O)c3ccccc3NC2=O)s1	-7%
NS(=O)(=O)c1ccc(C(=O)N[C@H](c2cccs2)C2CC(O)C2)cc1 (some centres not stated)	3%
C[C@]12CCC[C@](C)(C(=O)O)C1CCC13C=C(CO)C(CCC12)C3 (some centres not stated)	-8%
CC(=O)c1ccc(NC(=O)CSc2nnc(NC(=O)NC3CCCCC3)s2)cc1	-11%
Cc1cc(C)nc(/N=C(\NC#N)N2CCN(c3cccc(C(F)(F)F)c3)CC2)c1	4%
COc1ccccc1CCNC(=O)C1(c2cccs2)CCOCC1	-5%
Fc1cc(F)c2c(c1)[C@H]1C=CC[C@H]1C(c1cccnc1)N2 (some centres not stated)	?
CCCn1c(C)nc2c(NCCN(C)C)nc(C)nc21	i
CCOc1ccccc1NC(=O)CSc1ncc(S(=O)(=O)c2ccc(C)c(C)c2)c(N)n1	-16%
O=C(NCc1ccc(OC(F)(F)F)cc1)C1c2c(F)cccc2C(=O)N1CCc1ccccn1 (configuration not stated)	3%
Cc1ccc(Cl)cc1-n1ncc2c(NC3CCCCC3)ncnc21	-23%
COc1ccc2ncc3c(-c4ccc(C)c(C)c4)nn(CC(=O)NC4CCCC4)c3c2c1	-20%

As entered above.
nsP2pro primary with `COc1ccc2ncc3c(-c4ccc(C)c(C)c4)nn(CC(=O)NC4CCCC4)c3c2c1` is entered as -20%
nsP2pro primary with `CC(C)Cc1nnc(NC(=O)C[C@H]2NC(=O)c3ccccc3NC2=O)s1` is entered as -7%

Another view of part of the listing above.
> CCS(=O)(=O)N1CCCCCCNC(=O)[C@@H]2C[C@@H](C(=O)N3CCc4ccccc4C3)C[C@@H]21
  nsP2pro primary: i
> O=C(Cc1ccc(Cl)cc1)Nc1cnccc1C(=O)O
  nsP2pro primary: 10%
> Cc1cc(C(F)(F)F)n2nc(-c3ccc(Br)cc3)cc2n1
  nsP2pro primary: -22%
> COc1ccc(-c2nc3scc(CCNS(=O)(=O)c4cccs4)n3n2)cc1
  nsP2pro primary: -11%

(cont.)
SMILES	nsP2pro primary
COc1ccc(CN(C)C(=O)C2(C)CCOCC2)cc1	-6%[39.2 µM]
Cc1ccc(Cl)cc1NC(=O)Cn1nc2c(cc1=O)CC(C)CC2 (configuration not stated)	-12%
Cc1ccc(NS(=O)(=O)c2ccc3c(c2)N(C)C(=O)CC(=O)N3C)cc1Cl	-17%
CCOC(=O)c1ccc(N2C(=O)c3n[nH]c(-c4cccs4)c3C2c2ccc(C(C)(C)C)cc2)cc1 (configuration not stated)	-14%
CC(CCc1ccccn1)(CCc1ccccn1)C(=O)c1ccccc1	0%
O=C1OC(C(O)CO)C(O)=C1O (configuration not stated)	-23%
CCOc1ccc(C(c2c(O)cc(C)n(Cc3ccco3)c2=O)N2CCN(C)CC2)cc1 (configuration not stated)	13µM*
O=C(CCc1cc2n(n1)CCCNC2)NC1CCCN(c2ncccn2)C1 (configuration not stated)	-1%
Cc1ccc(NC(=O)C2CCCN(S(=O)(=O)c3cccc4cccnc34)C2)c(Br)c1 (configuration not stated)	-15%
CC(C)C1NC(=O)C(CC2(O)c3ccccc3N3C(=O)C(Cc4ccccc4)NC32)NC1=O (configuration not stated)	?
Cn1ncc2cc(-c3cnc(N)c(Cl)c3N3CCC4(CCNC4=O)CC3)ccc21	?
O=C1CCc2cc([S+](=O)([O-])Nc3ccc(N[S+](=O)([O-])c4ccc5c(c4)CCC(=O)N5)cc3)ccc2N1	i
COCCn1c(C)cnc1CCNS(=O)(=O)Cc1ccccc1F	-26%
CCc1ccccc1NC(=O)N1CCC(Oc2ncccc2NC)C1 (configuration not stated)	?
Nc1cc(=O)nc(SCC(=O)Nc2cccc(Cl)c2)n1CCc1ccccc1	-9%
COc1ccc(Cl)cc1NC(=O)c1c(NCc2cccs2)sc2c1CCC(C)C2 (configuration not stated)	7%
Cc1cccc(Cc2c(C)nc3nc(SCC(=O)NCc4ccc(F)cc4)nn3c2C)c1	-21%
Cc1ccc(NC(=O)Cn2c(N3CCN(c4ccccc4)CC3)nc(C)cc2=O)cc1	0%
O=C(O)c1ccc(-c2noc(-c3cccc(Cl)c3)n2)cc1	i
COc1ccc(OC)c(CCNC(=O)c2cc3c(=O)n(C)c4ccccc4c3n2C)c1	6%
CCN(CCNC(=O)Nc1ccccc1Br)c1cccc(C)c1	22%
COc1ccc(C)cc1NC(=O)Cn1cc(S(=O)(=O)N2CCC(C)CC2)c2ccccc2c1=O	-14%
CC(=O)c1ccc(NC(=O)C2CCCN(S(=O)(=O)c3ccc(Br)s3)C2)cc1 (configuration not stated)	-21%
COCCn1c(=O)[nH]c2cc(C(=O)Nc3cccc(C(C)=O)c3)ccc2c1=O	-3%
Cc1ccccc1-c1nc(CS(=O)(=O)CC(=O)Nc2cccc(C(F)(F)F)c2)c(C)o1	3%
C=CCN1CC[C@]23c4c5ccc(O)c4O[C@H]2[C@@H](O)CC[C@@]3(O)[C@H]1C5	9%
C/C(=C(/OCCOc1ccc(Cl)cc1)c1ccc(Cl)cc1Cl)n1ccnc1	88%[activator]
N#Cc1cccc(NC(=O)C2CCN(c3nc(-c4ccc(Cl)cc4)no3)CC2)c1	-12%
O=C(c1cccc(-n2cnnc2)c1)N1CCOC(c2ccc(F)cc2)C1 (configuration not stated)	-5%
O=C(O)c1ccc(-c2c[nH]c3ncc(-c4ccccc4)cc23)cc1C1CCCC1	?
CCCCn1cc(S(=O)(=O)c2cc(C)ccc2C)c(=O)c2cc(F)c(F)cc21	0%
Cc1cc(CN2C[C@@H](CO)[C@H](C(=O)N(C)C)C2)n(C)n1	i
CCCC1CN(Cc2ccc(OC)cc2)[S+](=O)([O-])c2cnccc2O1 (configuration not stated)	5%
O=C(c1coc(CN2CCN(C/C=C/c3ccccc3)CC2)n1)N1CCC[C@H]1CO	3%
CC1(C)O[C@@H]2[C@@H](CO[C@@]3(COS(N)(=O)=O)OC(C)(C)O[C@@H]23)O1	-18%&8%&-2%
CCN(CCNC(=O)C1CCCCC(=O)N1C)Cc1ccccc1 (configuration not stated)	-4%
CCCS(=O)(=O)Nc1ccc(=O)n2c1[C@@H]1C[C@@H](CN(S(=O)(=O)c3ccccc3)C1)C2	?
COc1ccccc1-c1nc(SCC(=O)c2ccc(Cl)cc2)n[nH]1	-26%
O=C(N1CCCCC1)N1CCN(c2cc(Cl)ncn2)C(=O)C1	-14%
COc1ccccc1N1CCN(C(=O)C2CCN(S(=O)(=O)c3cccc4nonc34)CC2)CC1	-9%
COc1ccc(Cl)c(Nc2nc3ccccc3nc2NS(=O)(=O)c2cccc(NC(=O)C(C)(C)N)c2)c1	60%[activator]
COC(=O)[C@H]1CN(C(=O)NC(C)C)CCN1C(=O)c1cccnc1	-1%[39.2 µM]
c1ccc(CN2CCC(Cc3ccc(CN4CCCC4)cc3)CC2)nc1	i
COc1ccc(-c2ccc(NS(=O)(=O)c3ccccc3)cc2)nn1	-2%
C=C(C)[C@H]1O[C@H]2CC[C@@]3(C)[C@@](O)(CC[C@H]4[C@@H]5OC(C)(C)[C@H]6C[C@@H]7C(=C)Cc8c(Cl)cc9[nH]c(c5c9c8[C@@]76O)[C@@]43C)[C@]23O[C@@H]3[C@H]1O	17%[10 µM]
Cc1[nH]c2ccccc2c1CCNCc1ccc(/C=C/C(=O)NO)cc1	33%&29%&70%[activator]
CCOCCCN(Cc1ccco1)C(=O)c1cc2c(s1)-c1c(C)cccc1OC2	-18%
